SARS PLP yeast – inhibitors of SARS-CoV papain-like protease in yeast | S. cerevisiae expressing SARS-CoV PLpro, growth rescue; control for the full effect not named in the record | Potency, µM (series often up to 32.9 µM), without a hit: at the highest dose activity, positive = growth rescue | 330,000 compounds, 0.19% hits; also: 0% is about no effect; nearly all actives have a fitted effect of over 55% in size; growth read by luminescence after 48 h
Cruzain inh Det – cruzain (T. cruzi) inhibition with detergent; P25779; purified cruzain, Z-FR-AMC fluorescence, 0.01% Triton; Potency, µM, without a hit: max response, negative = inhibition, most hits filed as inhibitors; 200,000 compounds, 0.43% hits; active = well fitted curve in the direction sought with a large enough effect; inconclusive = small, poorly fitted or top-dose-only effect, or another doubt; inactive = no such curve, though single readings can be large; an effect the other way counts as inactive or inconclusive;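 also: plate controls were neutral wells for no effect and buffer without enzyme for full effect; nearly all actives have a fitted effect of over 40% in size; top concentration of the series not given in the record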
Target sequence (P25779 123-467 limits assumed): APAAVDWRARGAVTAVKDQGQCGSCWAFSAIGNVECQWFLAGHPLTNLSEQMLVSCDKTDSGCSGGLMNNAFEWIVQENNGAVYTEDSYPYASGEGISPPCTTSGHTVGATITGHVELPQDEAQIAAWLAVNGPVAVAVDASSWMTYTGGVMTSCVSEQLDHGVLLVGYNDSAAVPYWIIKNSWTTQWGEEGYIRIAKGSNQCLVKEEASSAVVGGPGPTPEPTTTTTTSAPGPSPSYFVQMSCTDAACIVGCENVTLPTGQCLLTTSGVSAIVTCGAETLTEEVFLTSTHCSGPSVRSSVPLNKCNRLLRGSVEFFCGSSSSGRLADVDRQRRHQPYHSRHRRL
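Purified cruzain (1.5 nM final) was preincubated with compounds for 15 min at room temperature in 100 mM sodium acetate pH 5.5, 5 mM DTT, 0.01% Triton X-100. Reaction started with 2 uM Z-FR-AMC; AMC fluorescence change over 60 s gave activity.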
Cruzain inh noDet – cruzain (T. cruzi) inhibition without detergent; P25779; purified cruzain, Z-FR-AMC fluorescence, no detergent; Potency, µM, for inactives: max response, negative = inhibition, actives largely listed as inhibitors; 200,000 compounds, 2.3% hits; AID 1476; active = well fitted curve in the direction sought with a large enough effect; inconclusive = small, poorly fitted or top-dose-only effect, or another doubt; inactive = no such curve, though single readings can be large; an effect the other way counts as inactive or inconclusive;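 also: plate controls were enzyme without inhibitor for no effect and buffer without enzyme for full effect; nearly all actives have a fitted effect of over 40% in size; top concentration of the series not given in the record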
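Purified cruzain at 1.5 nM, pre-incubated 15 min with compound at room temperature in 100 mM sodium acetate pH 5.5, 5 mM DTT, 0.00005% Triton X-100. Reaction started with 2 uM Z-FR-AMC; AMC fluorescence increase over 60 s gives rate.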
NS1 inh – influenza NS1 inhibition | S. cerevisiae slowed by influenza A NS1, growth recovery by OD600 | AID 2326 | 270,000 compounds, 0.4% hits | Potency, µM (series often up to 46.1 µM), inactives show at the highest dose activity, positive = more growth; also: actives are rising curves; nearly all actives have a fitted effect of over 50% in size
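Recovery from NS1-induced slow growth read by OD600 in budding yeast switched to galactose assay medium (pH 6.0, -URA) at 1:100 dilution. Compound 23 nl per well; the matching strain lacking NS1 serves as control.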
Marburg entry inh – Marburg virus entry inhibition | 300,000 compounds, 1.8% hits | Marburg virus pseudotyped entry inhibition, cell reporter; control for the full effect not named in the record; about a third of the inactives were read at about 46 µM | Potency, µM (series often up to 37.8 µM), for the others: top-dose activity change, negative = inhibition, usual class: inhibitors; active = well fitted inhibition curve with a large enough effect; inconclusive = small, poorly fitted or top-dose-only effect, or effect the other way; inactive = flat fitted curve, though single readings scatter; tested in HEK293 cells; about a fifth of its hits are not listed in these tables; also: % is scaled to controls: 0 for no effect and ±100 for the full control effect; luciferase read-out
LASV entry inh – inhibitors of Lassa virus binding or cell entry; Lassa virus pseudotype entry inhibition, cell reporter; control for the full effect not named in the record; Potency, µM (doses to about 37.9 µM), without a hit: at the highest dose activity change, negative = inhibition, usual class: inhibitors; 300,000 compounds, 1.2% hits; AID 540256; active means well fitted inhibition curve with a large enough effect; inconclusive means small, poorly fitted or top-dose-only effect, or effect the other way; inactive means flat fitted curve, though single readings scatter; tested in HEK293 cells; also: % is scaled to controls: 0 for no effect and ±100 for the full control effect; nearly all actives have a fitted effect of over 50% in size; luciferase read-out
RE007 growth inh – less growth of the S. pombe RE007 Vpr strain; S. pombe RE007 Vpr strain, BacTiter-Glo ATP luminescence, 24 h; control for the full effect not named in the record; Potency, µM (series often up to 92.2 µM), for inactives: top-dose activity change, negative = less growth; 360,000 compounds, 0.21% hits; active = well fitted falling curve with a large enough effect; inconclusive = small, poorly fitted or top-dose-only effect; inactive = no such curve, though single readings can be large or run the other way;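 also: % is scaled to controls: 0 for no effect and ±100 for the full control effect; nearly all actives have a fitted effect of over 50% in size; the assay follows cell death caused by Vpr and the record does not say whether a fall means rescue or toxicity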
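Fission yeast strain RE007, carrying one chromosomally integrated HIV-1 vpr copy, was seeded at OD 0.01 in PMG+AL medium with 23 nL pinned compound. After 24 h at 30 °C and 99% humidity, viability was read by BacTiter-Glo luminescence.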
StopGo reporter – lowers the luciferase signal of an FMDV 2A StopGo reporter; human cells with a luciferase reporter of 2A StopGo recoding; control for the full effect not named in the record; Potency, µM (series often up to 57.9 µM), for the others: at the top dose signal change, negative = less light; 410,000 compounds, 1.2% hits; AID 1159524; active = well fitted falling curve with a large enough effect; inconclusive = small, poorly fitted or top-dose-only effect; inactive = no such curve, though single readings can be large or run the other way; tested in HEK293T cells; also: % is scaled to controls: 0 for no effect and ±100 for the full control effect; nearly all actives have a fitted effect of over 45% in size; luciferase light after 4 h
Active calls of the source: *; u = inconclusive; x = no result given; & = joins results of further samples; [ ] = remark or other dose. Unless noted, calls follow the shape of the dose curve; as a rule, active means well fitted rising curve with a large enough effect; inconclusive means small, poorly fitted or top-dose-only effect; inactive means no such curve, though single readings can be large or run the other way. Potency is read from the fitted curve at half-maximal effect.

item	Compound	SARS PLP yeast	Cruzain inh Det	Cruzain inh noDet	NS1 inh
1	CN(C)CCP(=O)(c1ccccc1)c1ccccc1	0%	x	x	0%
2	Cc1cc(NC(=O)Cn2c(=O)n(Cc3ccccc3)c(=O)c3ccccc32)no1	3%	1.4%	u	3%
3	O=C(CCCCCN1C(=O)CCC1=O)Nc1ccc2c(c1)OCCO2	9%	1.7%	0%	6%
4	COc1ccc(-c2noc(=O)n2CC(=O)N2CCC(Cc3ccccc3)CC2)cc1	-1%	x	x	-4%
5	Cc1cc(C)cc(-n2c(C)cc(/C=C3\C(=N)N4N=C(CC(C)C)SC4=NC3=O)c2C)c1	u	-7.3%	25µM*	3%
6	CCCn1cc(S(=O)(=O)c2ccccc2)c(=O)c2cc(OC)c(OC)cc21	-1%	x	x	8%
7	COCc1cc(=O)n2[nH]c(-c3ccsc3-n3c(C)ccc3C)cc2n1	5%	-4.1%	6%	24%
8	COc1ccc(/C=N/NC(=O)NC23CC4CC(CC(C4)C2)C3)c(OC)c1	-6%	x	x	-5%
9	COc1ccc(Br)cc1CNC(=O)CCc1nc(-c2ccccc2F)no1	0%	-3.8%	-7%	-16%
10	COc1cc(OC)c(C2Nc3ccccc3NC3=C2C(=O)CC(C)(C)C3)cc1OC (stereo not given)	-4%	x	x	18%
11	Cc1cc(/C=N/NC(=O)C(=O)N2CCCC2)c(C)n1-c1cccc(Br)c1	2%	-2.6%	-4%	7%
12	CCSc1cc(C2C(C(=O)OC)=C(C)NC3=C2C(=O)CCC3)c(C)o1 (stereo not given)	8%	-4.3%	6%	-3%

item	Marburg entry inh	LASV entry inh	RE007 growth inh	StopGo reporter
1	-1%[46.1 µM]	17%[46.1 µM]	-2%	7%
2	-4%	u	4%	-26%
3	u	-1%	-6%	4%
4	x	x	4%	-26%
5	18%	8%	-4%	u
6	x	x	8%	7%
7	-16%	2%	3%	-14%
8	u	u	16%	-13%
9	10%	8%	-7%	-26%
10	x	x	-2%	6%
11	u	u	18%	-16%
12	0%	x	x	-22%

Three entries picked at random from the list so far:
item	Compound	SARS PLP yeast	Cruzain inh Det	Cruzain inh noDet	NS1 inh
8	COc1ccc(/C=N/NC(=O)NC23CC4CC(CC(C4)C2)C3)c(OC)c1	-6%	x	x	-5%
7	COCc1cc(=O)n2[nH]c(-c3ccsc3-n3c(C)ccc3C)cc2n1	5%	-4.1%	6%	24%
3	O=C(CCCCCN1C(=O)CCC1=O)Nc1ccc2c(c1)OCCO2	9%	1.7%	0%	6%

item	Marburg entry inh	LASV entry inh	RE007 growth inh	StopGo reporter
8	u	u	16%	-13%
7	-16%	2%	3%	-14%
3	u	-1%	-6%	4%

The list goes on.
item	Compound	SARS PLP yeast	Cruzain inh Det	Cruzain inh noDet	NS1 inh
13	COc1ccc(C2=Nn3c(nnc3-c3ccccn3)SC2)cc1	1%	-2.8%	-6%	-11%
14	Cc1ccccc1SC1CCN(Cc2nc(C3CC3)no2)CC1	0%	x	x	-3%
15	COc1cccc(NC(=O)CC2SC(=Nc3ccccc3)NC2=O)c1 (stereo not given)	6%	-5.0%	5%	-3%
16	COc1cc(S(=O)(=O)N2CCN(c3ccccc3)CC2)ccc1Cl	-2%	-3.3%	9%	-43%
17	Cc1cc(C)cc(OCC(=O)Nc2ccc(S(=O)(=O)Nc3ccccn3)cc2)c1	-1%	x	x	2%
18	CCCOc1ccc2ccccc2c1/C=N/n1cnnc1	-11%	-5.3%	-15%	-12%
19	Cc1ccc(C(=O)N(Cc2ccco2)Cc2sccc2C)cc1	x	-7.6%	3%	x
20	CC(C)C(=O)NC(Nc1cccc([N+](=O)[O-])c1)C(Cl)(Cl)Cl (stereo not given)	1%	x	x	2%
21	Cc1ccc(NC(=O)/C=C\C(=O)N(c2ccc(C(C)C)cc2)C(C(=O)NCc2ccco2)c2ccc(Cl)cc2)cc1 (stereo not given)	x	0.8%	-2%	x
22	O=c1ccc2cc3ccoc3cc2o1	1%	-1.6%	-3%	-8%
23	CCCOc1ccc(Cc2c(O)nc(SC)[nH]c2=O)cc1C	7%	x	x	25%
24	OCC[n+]1ccc(/C=C/c2c[nH]c3ccccc23)cc1	-11%	-5.5%	-9%	0%

item	Marburg entry inh	LASV entry inh	RE007 growth inh	StopGo reporter
13	1%&1%	-6%	2%	-21%
14	11%[46.1 µM]	5%	-3%	17%
15	-25%	-14%	1%	2%
16	5%	8%	-4%	-26%
17	u	u	-3%	28%
18	-10%	-6%	4%	x
19	2%[46.1 µM]	4%[46.1 µM]	x	26%
20	x	x	-7%	-12%
21	x	u	x	-20%
22	x	x	-21%	-14%
23	x	x	10%	6%
24	-34%	u	-21%	-10%

Continued:
item	Compound	SARS PLP yeast	Cruzain inh Det	Cruzain inh noDet	NS1 inh
25	O=[N+]([O-])c1cccc(-c2csc(CS(=O)(=O)Cc3ccco3)n2)c1	0%	x	x	0%
26	CCCC(c1nnnn1C1CCCC1)N1CCN(c2ccccc2F)CC1 (stereo not given)	-2%	-2.4%	5%	-48%
27	COc1ccc(C2(C(=O)NCCCN(C)C)CCOCC2)cc1	5%	0.6%	14%	10%
28	CCOC(=O)c1c(NC(=O)COc2ccccc2OCC)sc2c1CC(C)(C)NC2(C)C	1%	x	x	x
29	O=C(COC(=O)C1CSC2(c3ccc(F)cc3)CCC(=O)N12)NC(=O)NC1CCCC1 (stereo not given)	2%	x	x	x
30	CCS(=O)(=O)NCCc1csc(-c2ccc(OC)c(OC)c2)n1	1%	x	x	-6%
31	COc1ccc(NS(=O)(=O)c2cc(NC(=O)/C=C/c3cccs3)ccc2N2CCOCC2)cc1	7%	-6.4%	u	6%
32	Cc1cccc(C)c1N(CC(=O)Nc1cccc(N(C)S(C)(=O)=O)c1)S(C)(=O)=O	4%	7.7%	8%	-8%
33	O=C(O)c1ccc(-n2c(-c3ccccc3)n[nH]c2=S)cc1	10%	-1.2%	1%	6%
34	CCc1ccccc1NC(=S)N(Cc1ccco1)C(C)c1cccs1 (stereo not given)	-1%	x	x	x
35	CC(=O)Nc1ccc(C(=O)N/N=C/c2ccncc2)cc1	-13%	x	x	x
36	N#C/C(=C\c1ccc(-c2cccc(C(F)(F)F)c2)o1)C(=O)Nn1cnnc1	10%	-13%	9%	14%

item	Marburg entry inh	LASV entry inh	RE007 growth inh	StopGo reporter
25	x	x	3%	-4%
26	-18%	u	-3%	-29%
27	x	x	-9%	-3%
28	u	u	9%	-18%
29	8%[46.1 µM]	3%	-14%	-20%
30	x	x	7%	-9%
31	u	u	-2%	32%[activator]
32	-20%	-2%	8%	-16%
33	13%	-7%	15%	16%
34	u	-25%[46.1 µM]	-10%	0%
35	0%[46.1 µM]	u	9%	-5%
36	2%	5%	37%	-2%

Further results:
item	Compound	SARS PLP yeast	Cruzain inh Det	Cruzain inh noDet	NS1 inh
37	Cc1ccc2c(c1)C1CN(C)CCC1N2C(=O)c1cccc(S(=O)(=O)N2CC(C)CC(C)C2)c1 (stereo not given)	-5%	x	x	x
38	CN(CC(=O)NC1CCN(Cc2ccccc2)CC1)S(=O)(=O)c1ccc(Br)s1	0%	x	x	31%
39	Cc1ccc(NC(=O)C2CCCN(S(=O)(=O)c3c(C)noc3C)C2)nc1 (stereo not given)	-5%	-1.5%	-11%	-5%
40	COCCCC1CCN(C(=O)CCc2nnc(CCCCc3ccccc3)o2)CC1	-1%	x	x	5%
41	COc1ccccc1N(CC(=O)NCc1ccc(F)cc1)C(=O)CCC(=O)Nc1nccs1	-2%	x	x	2%
42	Cc1nc(NC(=O)c2ccc(Cl)cc2)sc1-c1csc(Nc2cccc(F)c2)n1	0%	8.8%	10µM*	10%
43	COc1ccc(NC(=O)c2cnc(SCC(=O)NCCc3ccccc3)n(C)c2=O)cc1	4%	x	x	x
44	COc1ccc(CNS(=O)(=O)CCNC(=O)c2ccc3c(c2)OCO3)cc1	-5%	x	x	x
45	COC(=O)CC/C(O)=C1\C(=O)CC(C)(C)CC1=NCc1nc2ccccc2[nH]1	0%	x	x	x
46	O=C(O)/C=C/c1ccc([N+](=O)[O-])o1	3%	x	x	x
47	Oc1c(C(c2ccc(F)cc2)N2CCOCC2)sc2nc(-c3ccco3)nn12 (stereo not given)	x	0.4%	-4%	x
48	Cc1ccc(S(=O)(=O)NC(=O)COc2ccccc2C(N)=O)cc1	6%	-1.9%	-10%	1%[9.22 µM]
49	Cc1cccc2cc(/C=N/NC(=O)[C@H]3C[C@@H]3c3ccccc3)c(Cl)nc12	0%	x	x	u
50	COCCCNC(=O)c1ccc2nc(Cc3ccc(OC)cc3)oc2c1	-1%	-4.4%	5%	-9%
51	COc1ccc(C(=O)N2CCCC(C(=O)N3CCCCCC3)C2)cc1 (stereo not given)	-1%	3.8%	6%	-3%

item	Marburg entry inh	LASV entry inh	RE007 growth inh	StopGo reporter
37	u	-19%	15%	-5%
38	u	-28%	9%	u
39	-17%	-8%	-2%	-17%
40	x	x	-7%	12%
41	u	u	5%	-7%
42	2%	x	x	x
43	5%	2%	-12%	-26%
44	0%[46.1 µM]	-20%	14%	-9%
45	-25%	-12%	-8%	0%
46	u	12%[46.1 µM]	-6%	-23%
47	x	17%[46.1 µM]	x	-13%
48	7%	26%	-2%	7%
49	8%[46.1 µM]	u	17%	0%
50	u	u	-9%	9%&-10%
51	-5%	3%	-2%	-1%

Screens from PubChem BioAssay.
